Source: PubChem BioAssay
RanGTP-Imp inh: inhibitors of RanGTP-importin-beta interaction, primary screen, biochemical, FRET, CFP-Ran, YFP-importin-beta, homogeneous. inhibition, % (no concentration beside the values). hit rate 1.1% among 300,000. cell-free CFP-Ran/YFP-importin-beta FRET ratio;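 active = most replicates above 15%; inconclusive = exactly half above 15%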;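 also: 0% = DMSO wells and 100% = Ran loaded with GDP instead of GTP; wells of about 40 µL received 100 nL stock; the first replicate is given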
E coli growth: inhibitors of Escherichia coli growth | OD600, 23 h; hits give low values | OD600 absorbance (test concentration not listed) | hit rate 0.21% among 330,000 | AID 1053175;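 active = OD600 absorbance below the run mean of sample wells minus 3.6 SD, in any replicate, cut at about 0.56 in these data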;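 also: stock transfer was 300 nL into about 60 µL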
HNF4A DNA FP: change in binding of human HNF4 alpha to DNA | P41235 | HNF4a-FITC DNA binding, fluorescence polarization, 1 h | activity change, % at 10 µM | hit rate 0.3% among 360,000; in the data active = activity change above about 30%, passing the limit was not always enough;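 also: controls were the assay level and a saturating level of protein; the project sought stronger binding though the title names inhibitors; some compounds called inactive have numbers as strong as hits; positive values seem to mean higher polarization but the record does not say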
MLL AF4-AF9 inh: inhibitors of human MLL-AF4/AF9 interaction; P42568; AlphaScreen, biotin-AF4 peptide binding to FLAG-AF9; inhibition, % at 10 µM; hit rate 0.47% among 350,000; AID 651704;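 active = every replicate reaching a set inhibition limit, whatever the replicate mean, cut at about 25% in these data; inconclusive = mean inhibition reaches that limit but some replicates miss it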;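 also: 0% = plate neutral control median and 100% = total signal loss; the record names both 10 and 1 µM as test concentration; the first replicate is given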
Target sequence (P42568 whole entry, looked up): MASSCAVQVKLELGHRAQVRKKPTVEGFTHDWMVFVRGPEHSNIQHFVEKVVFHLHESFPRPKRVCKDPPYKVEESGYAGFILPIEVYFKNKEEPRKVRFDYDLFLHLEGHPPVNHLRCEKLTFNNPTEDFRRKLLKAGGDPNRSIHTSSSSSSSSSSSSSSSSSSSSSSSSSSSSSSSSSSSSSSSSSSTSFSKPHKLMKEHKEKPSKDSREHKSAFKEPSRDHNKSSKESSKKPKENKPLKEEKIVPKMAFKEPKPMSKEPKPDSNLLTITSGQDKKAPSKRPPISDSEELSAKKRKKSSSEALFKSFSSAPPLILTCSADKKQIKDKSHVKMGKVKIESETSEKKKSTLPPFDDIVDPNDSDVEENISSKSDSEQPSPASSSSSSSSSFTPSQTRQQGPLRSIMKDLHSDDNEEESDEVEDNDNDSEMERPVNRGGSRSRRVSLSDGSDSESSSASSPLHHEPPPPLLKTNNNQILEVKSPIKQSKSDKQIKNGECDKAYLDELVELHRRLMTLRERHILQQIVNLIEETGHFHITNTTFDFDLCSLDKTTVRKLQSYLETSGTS
UCH37 DUB inh: inhibitors of human deubiquitinating enzyme UCH37 | Q9Y5K5 | purified proteasome/UCH37, Ub-AMC cleavage fluorescence | inhibition, % (concentration not given with the values) | hit rate 0.33% among 330,000 | AID 588478;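 active = mean of two replicates above 20%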;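 also: 0% = compound-free wells with enzyme and 100% = wells lacking proteasome; stock transfer was 100 nL into about 20 µL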
Target sequence (Q9Y5K5 whole entry, looked up): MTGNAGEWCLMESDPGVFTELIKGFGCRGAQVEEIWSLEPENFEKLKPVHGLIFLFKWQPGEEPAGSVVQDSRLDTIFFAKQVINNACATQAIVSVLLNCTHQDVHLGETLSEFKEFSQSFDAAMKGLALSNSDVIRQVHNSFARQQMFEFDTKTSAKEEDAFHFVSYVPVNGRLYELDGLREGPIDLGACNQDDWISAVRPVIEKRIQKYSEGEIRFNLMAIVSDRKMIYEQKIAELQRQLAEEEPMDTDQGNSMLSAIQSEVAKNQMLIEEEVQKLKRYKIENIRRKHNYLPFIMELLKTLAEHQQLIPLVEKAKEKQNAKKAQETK
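Schedule: 30 min plus 25 min, room temperature / Material: human UCH37 within purified proteasomes / Technique: AMC fluorescence intensity at 355/460 nm / Buffer or medium: pH 7.4 Tris-HCl (50 mM) with ovalbumin, ATP-MgCl2, DTT / Controls: wells without proteasome as full block, compound-free enzyme plus substrate as uninhibited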
FGF22 binding: shifts melting point of recombinant human FGF22. Q9HCT0. recombinant FGF22 thermal shift, SYPRO orange fluorescence; percent of sucrose octasulfate shift, DMSO zero. calls only at 9.99 µM. hit rate 1.5% among 340,000. AID 651658;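 active = melting point raised past a set limit in the mean and every replicate; inconclusive = no clear call; three in four hits are not shown here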
Target sequence (Q9HCT0 whole entry, looked up): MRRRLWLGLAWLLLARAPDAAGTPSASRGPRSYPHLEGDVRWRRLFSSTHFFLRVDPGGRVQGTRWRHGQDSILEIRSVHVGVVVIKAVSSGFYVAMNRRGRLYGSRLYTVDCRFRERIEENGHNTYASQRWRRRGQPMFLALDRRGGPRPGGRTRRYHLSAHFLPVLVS
Vif TR-FRET: HIV-1 Vif–A3G interaction blockers – biochemical, TR-FRET, GST-Vif 1-94, biotin-A3G peptide, dose response retest, primary screen (AID 1117319). TR-FRET GST-Vif / biotin-A3G peptide binding; higher % means a stronger effect; test concentration not given here; strong numbers were not always called active. one-dose inhibition, %; IC50 in µM for titrated hits. hit rate 0.57% among 260,000;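 active = above the screen mean plus three standard deviations and confirmed in dose response; inconclusive = results disagree or hit not tested in dose response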;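 also: Vif residues 1-94 fused to GST binding biotinylated APOBEC3G peptide 110-148; 0% = full assay without inhibitor and 100% = GST in place of GST-Vif; retest series ran down from 100 µM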
Active calls of the source: *; i = inactive; ? = inconclusive; · = not tested or not shown.

SMILES	RanGTP-Imp inh	E coli growth	HNF4A DNA FP	MLL AF4-AF9 inh	UCH37 DUB inh	FGF22 binding	Vif TR-FRET
COc1ccccc1NC(=O)c1ccc(-n2cccn2)c([N+](=O)[O-])c1	-1.2	0.7	0.9	4.9	5.9	i	6%
Cc1cccc(C)c1-n1nnnc1C(c1ccnc2ccccc12)N1CCN(CC(=O)NC(C)C)CC1 (stereo not given)	·	·	-2.1	-2.5	·	i	·
COc1ccc(OC)c(NC(=S)NCC(c2cccnc2)N2CCOCC2)c1 (stereo not given)	-0.3	0.69	-4.2	-7.6	4.7	i	19%
CCOC(=O)C1=C(C)OC(N)=C(C#N)C1C1CCCCC1 (stereo not given)	1.1	0.7	-1.7	·	19	·	-4%
CCN(c1ccccc1)S(=O)(=O)c1cc2c3c(c1)CCN3C(=O)CC2	2.8	·	3.8	-2.6	·	i	·
O=C(Oc1cccc(N2C(=O)CCC2=O)c1)C1CC(=O)N(c2ccc(F)cc2)C1 (stereo not given)	-0.9	0.71	-1.3	-1.6	3.1	i	10%
O=C(NN(CC(O)COc1ccccc1)CC(O)COc1ccccc1)c1ccccc1 (stereo not given)	3.3	0.7	-1.3	0.8	0.5	i	1%
COc1ccc(OC)c(C2=NOC(C(=O)NCc3ccccn3)C2)c1 (stereo not given)	-0.5	0.63	-3.1	·	-3.8	·	5%
O=C(COC(=O)COc1ccccc1F)NCCc1ccc(F)cc1	·	0.69	-3.2	-27	-2.5	i	-8%
N/C(CC(=O)NC1CCCCC1)=N\OCC(=O)Nc1ccc(Cl)c(Cl)c1	?	0.63	14	-1.6	-1.7	i	0%
O=S1(=O)CC(N2CC=CC2)CN1Cc1ccc(F)cc1 (stereo not given)	·	·	1.3	4.6	·	i	·
C=CCn1c(SCC(=O)Nc2ccc(C(=O)OCC)cc2)nnc1-c1cccs1	-0.6	0.72	-3.5	·	-3.1	·	-8%
CN(Cc1ccccc1)C(=O)c1ccc(NC(=O)Cc2cccc(NC(=O)C3CCCN(C(=O)C4CCCCC4)C3)c2)cc1 (stereo not given)	·	0.67	-0.5	-1.8	3.0	i	·
CCOc1ccc(NS(=O)(=O)c2cc(C(=O)NCCCN3CCCC3=O)ccc2C)cc1	·	0.7	-0.6	-0.8	0.8	i	3%
COc1ccc(CCN2CC(C(=O)NCc3cn(C)nc3C)CCC2=O)cc1 (stereo not given)	·	·	3.2	-0.3	·	i	-4%
O=C(OCC(=O)N1CCc2ccccc21)c1ccccc1F	-1.4	0.69	1.7	-3.2	3.9	i	·
O=C(Cn1cc([N+](=O)[O-])cn1)N1CCN(c2ccccc2)CC1	1.9	0.58	3.4	-0.6	2.7	i	6%
CCOC(=O)CSc1nnc(NC(=O)c2cccc(S(=O)(=O)N3CCCC3)c2)s1	-0.1	0.75	-0.1	-28	-30	i	-5%
Cc1c(NC(=O)Nc2cccc(Cl)c2Cl)c(=O)n(-c2ccccc2)n1C	-1.8	0.69	-0.4	-0.4	0.9	i	·
CC1=C(C(=O)NCCCOC(C)C)C2(CCC(C)CC2)OC1=O (stereo not given)	1.1	0.77	3.2	-4.8	1.7	i	4%
COC(=O)c1ccc(C(=O)OC)c(NC(=O)COC(=O)C2CCCCC2)c1	1.4	0.66	-2.3	·	-4.3	·	?
Cc1cccc(NC(=S)N2CCC(c3nc4ccccc4o3)CC2)c1	-2.1	0.67	-3.1	0.1	3.4	i	-9%
Cc1ccc(C2=NC3(CCCC3)N=C2SCC(=O)Nc2ccc3c(c2)OCCO3)cc1	1.8	·	0.2	0.6	·	i	4%
CC1(C(=O)N2CCN(C(=O)c3ccco3)CC2)CCN1Cc1ccccc1OC(F)F (stereo not given)	·	·	1.3	-3.7	·	i	·
Nc1nc(-c2cccnc2)nn1C(=O)c1ccccc1Cl	2.7	0.7	-0.3	-0.5	1.4	i	5%
O=C(NCC1CCCCC1)c1ccc(Cl)c(S(=O)(=O)N2CCOCC2)c1	·	0.69	-3.5	-1.2	-0.5	i	-20%
COc1ccc2c(c1)C1OCCC1C(c1ccco1)N2 (stereo not given)	-3.6	0.66	-1.6	·	-255	·	·
CCn1c(C)c(C)c2cc(C(=O)N3CCc4ccccc4C3)ccc21	-4.6	0.72	5.1	7.5	7.2	i	·
CCOC(=O)c1c(C)[nH]c(C)c1S(=O)(=O)N1CCN(C(=O)c2ccco2)CC1	-1.3	0.71	1.4	2.2	4.0	i	·
CCCCC(=O)OCC(=O)Nc1ccc(C)c(F)c1	-1.6	0.64	-2.4	-2.7	4.8	i	-4%
CCOC(=O)N1CCC(NCCNC(=O)c2ccc(F)c(F)c2)CC1	·	0.67	2.2	-3.4	4.0	i	·
O=C1c2ccccc2C(=O)N1OCc1ccc(Cl)cc1	0.7	0.7	2.1	·	-2.5	·	-5%
CCOc1ccc(NC(=S)NC(C)c2cccs2)cc1 (stereo not given)	6.1	0.66	5.4	·	1.9	·	·
CC(C)c1nc(SCC(=O)N2CCOCC2)c2c(=O)n(C)c(=O)n(C)c2n1	-1.1	0.8	0.8	-2.1	0.2	i	5%
O=C(NCc1ccncc1)C(=O)NCc1ccncc1	4.5	0.71	2.9	-0.6	2.8	i	·
Cc1ccccc1CN1CCC(n2nccc2NC(=O)CCOc2ccccc2)CC1	2.5	0.68	1.5	4.3	2.3	i	·
Cc1ccc2nc(Cn3cc(C(F)(F)F)cc(Cl)c3=O)cc(=O)n2c1	1.0	0.71	-1.9	-6.7	-9.7	·	·
CCc1nc(OCCN(C)C)c2oc3ccccc3c2n1	0.5	0.69	-0.1	·	2.3	·	6%
COc1ccc(Cl)cc1C(=O)NCC#N	2.5	0.67	3.7	·	1.7	·	-5%
O=[N+]([O-])c1ccc(N2CCN(c3ccc(F)cc3)CC2)cc1	1.0	0.71	-1.3	-1.6	5.4	i	0%
CCc1ccc(OCCSc2nc3ccccc3n2CC(=O)O)cc1	?	0.65	2.2	1.2	1.6	i	·
O=C(CN1c2ccccc2Sc2ccccc21)NNC(=O)Nc1ccc(Cl)c(Cl)c1	0.2	0.67	0.4	-2.7	4.6	i	-3%
COc1cc(C(c2oc(CO)cc(=O)c2O)c2oc(CO)cc(=O)c2O)cc(OC)c1OC	1.2	0.63	6.0	-0.1	3.0	·	24%
CCOC(=O)Cc1csc(NC(=S)NC(=O)c2cc(OC)cc(OC)c2)n1	-2.2	0.71	3.6	-0.4	3.6	i	-12%
COC(=O)c1ccc(Cn2cc(Cl)cn2)cc1	4.1	0.68	0.6	·	0.5	·	-5%

Exported field by field: four of the compounds above.
COc1ccc(Cl)cc1C(=O)NCC#N
  RanGTP-Imp inh: 2.5	E coli growth: 0.67	HNF4A DNA FP: 3.7	MLL AF4-AF9 inh: ·	UCH37 DUB inh: 1.7	FGF22 binding: ·	Vif TR-FRET: -5%

O=[N+]([O-])c1ccc(N2CCN(c3ccc(F)cc3)CC2)cc1
  RanGTP-Imp inh: 1.0	E coli growth: 0.71	HNF4A DNA FP: -1.3	MLL AF4-AF9 inh: -1.6	UCH37 DUB inh: 5.4	FGF22 binding: i	Vif TR-FRET: 0%

CCc1ccc(OCCSc2nc3ccccc3n2CC(=O)O)cc1
  RanGTP-Imp inh: ?	E coli growth: 0.65	HNF4A DNA FP: 2.2	MLL AF4-AF9 inh: 1.2	UCH37 DUB inh: 1.6	FGF22 binding: i	Vif TR-FRET: ·

O=C(CN1c2ccccc2Sc2ccccc21)NNC(=O)Nc1ccc(Cl)c(Cl)c1
  RanGTP-Imp inh: 0.2	E coli growth: 0.67	HNF4A DNA FP: 0.4	MLL AF4-AF9 inh: -2.7	UCH37 DUB inh: 4.6	FGF22 binding: i	Vif TR-FRET: -3%

Going on with the list.
SMILES	RanGTP-Imp inh	E coli growth	HNF4A DNA FP	MLL AF4-AF9 inh	UCH37 DUB inh	FGF22 binding	Vif TR-FRET
CC(C)CC(=O)Nc1ccc(C(=O)NNC(=O)C(c2ccccc2)c2ccccc2)cc1	8.6	0.68	-4.6	·	3.1	·	1%
CCN1CCC(NC(=O)Nc2ccc(F)cc2F)CC1	1.2	0.72	-3.3	-5.0	2.1	i	?
CC(C)Cc1cc(C(=O)O)n[nH]1	-0.9	0.69	0.3	·	0.2	·	-1%
O=C(/C=C/c1ccc([N+](=O)[O-])cc1)OCC(=O)N1CCCCCC1	·	0.67	-4.4	-0.1	4.1	i	8%
O=C(O)Cc1ccc(NCc2ccccc2Cl)cc1	·	0.69	1.3	0.0	1.4	i	-2%
COc1ccc(OCC(=O)N2CCN(C(=O)c3cccc(F)c3)CC2)cc1	5.3	0.76	-4.2	·	-4.7	·	2%
CCOc1ccc(NC(=S)N(CCc2c(C)[nH]c3ccccc23)Cc2ccco2)cc1	0.8	0.74	3.2	5.9	8.1	i	-5%
Cc1cc(N2CCOCC2)nc(N)n1	2.6	0.67	4.8	-1.1	-0.5	i	?
CCCCCCCOC(=O)C1=C(C)Nc2ncnn2C1c1cccs1 (stereo not given)	7.7	0.74	-2.7	·	3.2	·	?
CCNC(=O)NC(=O)CSc1ccc(S(=O)(=O)N2CCOCC2)cn1	·	0.67	-1.0	2.7	3.0	i	·
O=C(CCCN1C(=O)c2cccc3cccc(c23)C1=O)Nc1nccs1	-6.1	0.7	-1.0	-17	2.6	i	-6%
CC(C)C[C@H](NC(=O)c1[nH]cnc1C(=O)N[C@@H](C)c1ccccc1)C(=O)OCc1ccccc1	-3.7	·	-7.1	·	-0.1	·	·
Cc1cc(CO)nn1-c1ccc([N+](=O)[O-])cc1	0.7	0.65	-1.5	·	3.1	i	5%
COc1cccc(NC(=O)C2(C)CCN2Cc2ccccc2Cl)c1 (stereo not given)	·	·	1.1	0.5	·	i	·
CC1=C(C(=O)Nc2cc(C)ccn2)C(c2cnn(C)c2)C2=C(CC(c3ccccc3)CC2=O)N1 (stereo not given)	3.1	0.67	-0.1	-1.2	-156	i	·
Cc1ccc(/C=C/C(=O)Nc2ccc(O)c3c(=O)cc(-c4ccccc4Cl)oc23)cc1	-4.6	·	-6.8	0.4	-1.5	i	-4%
O=C(Nc1cccc(-c2ccc(N3CCOCC3)nn2)c1)c1ccccc1Cl	1.1	0.71	3.1	-2.9	-2.7	i	-4%
CC(CC(=O)Nc1ccc(-c2ccno2)cc1)n1cccn1 (stereo not given)	0.0	0.7	12	-2.1	-3.7	i	·
N#Cc1cccc(NC(=O)CC2CCCC2)c1	-3.3	0.69	-4.6	-2.4	0.9	i	·
C[n+]1nc(Nc2ccccc2)sc1-c1ccc(O)cc1	1.6	0.72	-2.7	-3.0	-0.6	i	·
Nc1nc(CCOc2ccc(F)cc2)cs1	-2.2	0.62	-0.9	1.0	2.3	i	8%
OC1CCN(Cc2cccc3ccccc23)CC1	1.8	0.64	0.3	1.2	1.7	i	6%
O=C(Cc1coc(-c2ccc(F)cc2)n1)NC1CCCCC1	4.9	0.75	-0.5	·	1.1	·	-3%
CC[C@@H]1C=C(C(=O)O)[C@H](c2ccc(Cl)cc2)N1S(=O)(=O)c1ccc(C)cc1	·	0.68	-2.8	-4.4	0.8	i	·
COc1cc(-c2ccc(=O)[nH]n2)ccc1OC(F)F	-1.0	0.71	0.4	-1.6	4.1	i	-6%
COc1ccc(C(=O)CN(Cc2ccccc2)C2=NCCS2)cc1	-3.3	0.68	-1.0	·	4.0	·	-2%
N#C/C(=C\c1cccnc1)c1nc2ccccc2[nH]1	6.5	0.65	8.5	-6.2	-29	i	·
CCNC(=O)C1(C)CCCN(C(=O)c2ccc3ccccc3n2)C1 (stereo not given)	·	·	2.4	-3.3	·	i	·
CCOCCCNC(=O)C(Cc1ccccc1)NS(=O)(=O)c1ccc2c(c1)c(=O)n(C)c(=O)n2C (stereo not given)	-1.6	0.7	-6.6	-1.1	2.0	i	0%
CC1(C)Cc2c(sc3nc4n(-c5ccccc5)cnn4c(=O)c23)CO1	0.3	0.63	-2.4	0.1	0.1	i	-3%

A portion of the library; count on the stated rates, not on these rows.
